Sa growth inh = S. aureus growth inhibition at 42 and 30 °C, primary screen, LtaS inhibitor project, RN4220, two temperatures | OD600, 20 h, 42 °C; hits give low values | relative growth, % (no concentration beside the values) | 170,000 compounds, 0.53% hits | AID 720641, 2013;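 active means growth at 42 °C up to 50% and 20 or more points under that at 30 °C, or under 10% at both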;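 further: 300 nL library stock went into each well; scaled to the means of positive and negative controls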
GIV-Gai inh = inhibitors of GIV peptide binding to Galpha-i3, primary screen, biochemical, fluorescence polarization, FITC-GIV GBA peptide, rat Galphai3. 90 min; hits give low values; scaled: aluminum fluoride 0%, vehicle 100%. percent of control (FP), % (concentration not given with the values). 210,000 compounds, 0.42% hits;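 active means replicate mean at 85% of control or lower, very high polarization wells dropped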;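 further: wells of about 15 µL received 100 nL stock; the first replicate is given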
Target sequence (P08753 whole entry, looked up): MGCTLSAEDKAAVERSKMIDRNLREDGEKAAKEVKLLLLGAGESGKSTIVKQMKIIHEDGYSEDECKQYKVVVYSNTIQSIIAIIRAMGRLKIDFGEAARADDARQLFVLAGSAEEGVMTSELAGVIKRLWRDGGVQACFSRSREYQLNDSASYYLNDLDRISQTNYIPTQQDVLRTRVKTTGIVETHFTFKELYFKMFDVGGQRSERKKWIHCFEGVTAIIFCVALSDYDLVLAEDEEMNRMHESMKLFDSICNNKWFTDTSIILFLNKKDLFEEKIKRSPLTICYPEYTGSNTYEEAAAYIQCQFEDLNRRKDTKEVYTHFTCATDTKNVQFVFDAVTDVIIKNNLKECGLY
HCMV NEC inh = inhibitors of HCMV UL50-UL53 interaction, biochemical, HTRF. 190,000 compounds, 0.15% hits. normalized percent inhibition. inhibition, % (concentration not given with the values);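 active means both replicates at 50% or more, plus weaker picks with an unusually low signal ratio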;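 further: stock transfer was 100 nL into about 20 µL; 0% = negative control wells and 100% = wells with untagged competitor protein; inactives centre near -12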
Sa growth inh second temp = further read-out of Sa growth inh, marked with its call; relative growth, %; measured here: growth at 30 °C;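 optical density after 20 h as mean of two plates; 100% = untreated growth and lower means inhibition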
Active calls of the source: *; nt = no result given; & = joins results of further samples. Compounds were not picked by outcome; any-hit rate near 0.83%.

Structure,Sa growth inh,Sa growth inh second temp,GIV-Gai inh,HCMV NEC inh
Cc1ccc(-c2nc3cccnc3n2CCN2CCN(C(=O)Nc3c(C)cccc3C)CC2)cc1,nt,nt,108.8,2.3
CCOC(=O)C1=C(C)Nc2nnnn2C1c1ccc(OCc2ccccc2)c(OCC)c1 (configuration not stated),nt,nt,103.5,1.8
CCCCN(CC)CCCNC(=O)Cn1ncc2c3ccccc3n(C)c2c1=O,95.0,86.9,108.5,0.5
COc1ccc(CNC(=O)c2cn[nH]c2-c2ccc(OC)cc2)cc1,95.2,90.7,105.0,nt
COc1ccc(NC(=O)CN(C)S(=O)(=O)c2ccc(-c3ccc(=O)[nH]n3)s2)cc1,83.1,97.0,103.9,-38.7
COc1ccc(NC(=O)c2cccs2)cc1OC,100.0,71.1,nt,-4.9
CCCCC(=O)Nc1ccc(C(=O)NCc2ccc(S(N)(=O)=O)cc2)cc1,119.9,99.1,104.6,-14.2
COc1cccc(C(=O)OCC(=O)N(C)C)c1,103.6,93.8,nt,-6.3
CN(C(=O)Nc1ccc2c(c1)OCCO2)C1CCCCC1,107.4,97.1,nt,-14.1
O=C(NC1CCCCC1)c1ccc(CSc2nc3cccnc3n2Cc2cccc(F)c2)cc1,134.5,83.3,106.7,nt
CCOC(=O)c1c(NC(=O)c2cnn3c2NC(c2ccc(Br)cc2)CC3C(F)(F)F)sc2c1CCCC2 (configuration not stated),nt,nt,96.7,-1.6
CCCc1cc(NCCc2ccc(OC)cc2)n2ncnc2n1,115.7,70.1,103.8,6.7
O=C(NCc1ccccc1)c1nc(-c2ccccc2)no1,102.3,97.7,105.4,-4.4
Cc1nc2nc(SCC(=O)NC3CCC(C)CC3)nn2c(C)c1Cc1ccccc1 (configuration not stated),80.4,89.8,103.8,nt
Cc1ccc2ccc3cc(C(=O)N4CCCC4)nc3c2[nH]1,nt,nt,102.3,-4.4
Cc1ccccc1C(=O)Nc1c(C)nc(Nc2ccccc2)nc1Nc1ccccc1,119.2,83.6,104.4,0.1
CCOC(=O)CC1CN(C)CCN1C (configuration not stated),95.6,85.0,96.1,9.0
Cn1c(=O)c2cc(C(=O)NCCCN3CCN(c4ccccc4F)CC3)sc2c2ccccc21,107.8,90.9,97.2,-28.7
CCOc1ccccc1NC(=O)CSc1ccc2nnc(CCNS(=O)(=O)c3ccccc3)n2n1,109.0,80.2,124.1,nt
Cc1cc(Br)ccc1NC(=O)c1cc2c(=O)n(C)c3cc(Cl)ccc3c2s1,107.3,89.5,99.1,-8.2
CC1CSc2ccc(S(=O)(=O)N3CCOCC3)cc2N(CC(=O)NCC2CCCO2)C1=O (configuration not stated),nt,nt,100.6,8.5
COc1cccc(CN2CCN(C(=O)Nc3cccc(OC)c3)CC2)c1,104.2,105.6,111.5,-12.4
O=C(NCc1ccccc1)c1cc(=O)nc2sc(N3CCCCC3)nn12,nt,nt,99.0,-20.9
Cc1ccc(NC(=O)CCC(=O)n2nc(C)cc2C)c(C)c1,106.2,98.5,nt,10.0

Reprinted from the results shown for reference:
Structure,Sa growth inh,Sa growth inh second temp,GIV-Gai inh,HCMV NEC inh
CC1CSc2ccc(S(=O)(=O)N3CCOCC3)cc2N(CC(=O)NCC2CCCO2)C1=O (configuration not stated),nt,nt,100.6,8.5
COc1cccc(CN2CCN(C(=O)Nc3cccc(OC)c3)CC2)c1,104.2,105.6,111.5,-12.4
O=C(NCc1ccccc1)c1cc(=O)nc2sc(N3CCCCC3)nn12,nt,nt,99.0,-20.9
Cc1ccc(NC(=O)CCC(=O)n2nc(C)cc2C)c(C)c1,106.2,98.5,nt,10.0

Next compounds follow.
Structure,Sa growth inh,Sa growth inh second temp,GIV-Gai inh,HCMV NEC inh
CC(C)(C)CC(=O)NC1CC(=O)N(c2ccc3c(c2)OCCO3)C1 (configuration not stated),102.3,94.5,98.5&100.4,nt
CSc1ncc2c(=O)[nH]ccc2n1,109.2,94.3,111.1,-1.6
COc1ccc(Nc2nc3ccc(Cl)cc3n3cnnc23)c(OC)c1,94.6,78.3,103.4,4.9
Cc1ccc(N2C(=O)CN(S(=O)(=O)c3ccccc3)CC2(C)C(=O)NC2CCCCC2)cc1F (configuration not stated),nt,nt,102.5,-27.8
CCOC(=O)/C(=N\Nc1ccccc1Cl)N1CCCCC1,73.0,84.5,nt,-34.7
CC1=C(c2ccc(Cl)cc2)S(=O)(=O)N=C1N1CCN(c2cccc(C(F)(F)F)c2)CC1,100.8,90.2,96.3,-12.8
CC1CCN(C(=O)Cn2cc(SCC(N)=O)c3ccccc32)CC1,nt,nt,108.2,-8.2
Cc1ccc(N2C(=O)CC(NCC(=O)O)C2=O)c(C)c1 (configuration not stated),94.3,77.1,101.5,-4.9
Cc1ccc(NC(=O)c2nc(S(=O)(=O)Cc3cccc(C)c3)ncc2Cl)cc1,8.4*,21.7*,104.5,-9.4
O=C(CC(c1ccccc1)N(C(=O)Nc1ccccc1Cl)c1ccccc1)C1CC1 (configuration not stated),95.3,96.1,nt,7.1
CC(C)Cc1cc(C(=O)Nc2ccc3c(c2)OCO3)no1,106.2,89.4,99.1,-4.8
CCC(=O)NC(Nc1c(C)n(C)n(-c2ccccc2)c1=O)(C(F)(F)F)C(F)(F)F,106.1,86.8,nt,-9.7
COc1ccc(CN(C)CC(O)COC2CCCc3ccccc32)cc1 (configuration not stated),99.1,88.2,nt,-7.1
COc1cc2c(cc1OC)C(C)N(C(=O)CCN1C(=O)C3C4C=CC(C4)C3C1=O)CC2 (configuration not stated),86.3,87.8,102.7,nt
Cc1ccc(NC(=O)Cc2coc3ccc(C(C)C)cc23)cc1,93.8,90.8,105.4,nt
CCON1C(=O)NC(c2cc(F)ccc2C)(C(F)(F)F)C1=O (configuration not stated),120.6,98.7,106.3,-24.4
Cc1cccc(Nc2nnc(SCc3ccccc3C#N)s2)c1,80.0,102.3,nt,-25.3
CN(CC(=O)NC1CCCC1)S(=O)(=O)c1ccc2[nH]c3c(c2c1)CCCC3,90.1,77.5,101.0,-6.4
Fc1cccc(CN2CCc3c([nH]c4ccccc34)C2)c1,102.4,77.8,103.8,5.1
CN(C)S(=O)(=O)c1ccc(C(=O)OCCn2cnc3c2c(=O)n(C)c(=O)n3C)cc1,106.0,96.4,nt,-40.4
CCOc1ccc(-n2c(Cc3ccccc3)nnc2SCc2nc(-c3cccs3)no2)cc1,100.3,79.6,104.1,-9.4
Nc1nnc(-c2ccco2)o1,84.3,89.7,nt,-20.7
O=C(NCc1ccco1)c1ccc(Cn2c(=O)c3ccccc3n(Cc3ccccc3F)c2=O)cc1,100.0,81.6,102.9,-14.7
Nc1nc(SCC(=O)N2CCNC2=O)nc2sc3c(c12)CCCCC3,74.1,76.0,nt,-33.6
CCC(C)N1CC(=O)N(c2ccc(Br)cc2)[C@@H]2CS(=O)(=O)C[C@@H]21 (some centres not stated),nt,nt,108.2,-22.5
CCC(CO)NC(=O)c1snnc1C (configuration not stated),84.7,84.8,105.9,-30.9
Cc1ccc(NC(=O)C(=O)NCC(c2cccnc2)N2CCOCC2)cc1Cl (configuration not stated),102.3,87.2,102.6,-19.7
CCSc1nn2c(=O)cc(COc3ccc(CC)cc3)nc2s1,77.6,59.1,128.6,-3.4
COc1ccc(NC(=O)CN(C)C(=O)C2=NN(C3CCS(=O)(=O)C3)C(=O)CC2)cc1 (configuration not stated),89.5,80.8,nt,-31.2
COc1ccc(NC(=O)c2c(N)c(C(=O)c3ccc(OC)cc3)n3ccccc23)cc1,109.4,73.6,99.3,-2.2
CS(=O)(=O)NCC(c1cccnc1)S(=O)(=O)c1ccccc1 (configuration not stated),nt,nt,93.5,-4.2
CCC(=O)Nc1ccc(-c2csc(NCCN(CC)CC)n2)cc1,88.6,94.1,nt,-11.3
O=C(NN=C1CCCCC1)c1ccccc1,77.9,88.6,94.9,-46.6
COc1ccccc1NC(=O)C1=C(C)Nc2nc(-c3ccco3)nn2C1c1ccccc1 (configuration not stated),111.4,84.0,100.5,-43.5
Cc1nc(-c2cccnc2)nc(N2CCCN(Cc3ccc(F)cc3)CC2)c1Cl,96.2,95.1,113.4,nt
c1ccc2nc3c(nc2c1)c1ccccc1n3CN1CCOCC1,nt,nt,105.0,-40.5
Cc1[nH]n(CCc2ncc(-c3ccccc3)s2)c(=O)c1C1=NCCCCC1,90.1,91.9,nt,-10.1
O=C(OCc1nnc(-c2ccc(Cl)cc2)o1)C1CCN(c2ccc(C(F)(F)F)cn2)CC1,86.7,83.1,nt,-16.5
CCCN(Cc1nnc(-c2ccco2)o1)C(=O)c1nn(-c2ccccc2)nc1C,88.6,88.2,nt,-9.9
O=C1NCC(O)=C1C=Nc1ccc(C2CCCCC2)cc1,97.7,86.6,100.6,nt
CCc1ccc(CNC(=O)c2ccc(CSCc3ccc(C)cc3)o2)cc1,118.5,67.9,101.1,nt
CCOc1ccc(CN2CCc3nc(N4CCN(c5ccccc5OC)CC4)ncc3C2)cc1OC,122.9,97.7,115.7,nt
Cc1n[nH]c(C)c1Sc1nnnn1-c1ccccc1,99.0,111.3,101.6,4.1
CC(C)C(NC(=O)c1cccs1)C(=O)Nc1nc2ccccc2s1 (configuration not stated),107.8,82.9,102.7,-10.3
CCc1cccc(NC(=O)CN2c3ccccc3S(=O)(=O)c3ccccc32)c1,86.1,92.3,98.5,nt
COc1ccc(OC)c2sc(N3CCN(C(=O)C4CC4)CC3)nc12,110.8,85.0,97.2,nt
COc1ccc(CC(=O)NC2CCN(CC(=O)Nc3ccc4c(c3)CCC4)CC2)cc1OC,92.8,86.0,107.2,7.3
COc1cccc(-n2nnc3c(=O)n(Cc4ccccc4F)cnc32)c1,122.2,92.6,97.0,-1.5

An excerpt of these results, field by field:
> CCOc1ccc(CN2CCc3nc(N4CCN(c5ccccc5OC)CC4)ncc3C2)cc1OC
  Sa growth inh: 122.9; Sa growth inh second temp: 97.7; GIV-Gai inh: 115.7; HCMV NEC inh: nt
> Cc1n[nH]c(C)c1Sc1nnnn1-c1ccccc1
  Sa growth inh: 99.0; Sa growth inh second temp: 111.3; GIV-Gai inh: 101.6; HCMV NEC inh: 4.1

Other compounds follow:
Structure,Sa growth inh,Sa growth inh second temp,GIV-Gai inh,HCMV NEC inh
CN(Cc1ccccc1)C(=O)c1ccc2c(c1)S(=O)(=O)N=C1CCCCCN12,91.3,80.6,nt,-26.7
CN(C(=O)C1CC(c2ccc(F)cc2)=NO1)c1ccccc1 (configuration not stated),108.2,91.6,106.5,0.0
CC1(C)OC(=O)CC1C(=O)N1CCOCC1 (configuration not stated),98.0,84.7,99.5,-5.4
CCN(CC)S(=O)(=O)c1ccc2c(c1)c(=O)c(C(=O)NCCc1ccccc1)cn2C,95.7,99.6,102.4,16.3
C=CCN1C(=S)NC(C)(C)C=C1C,60.0,0.8,nt,2.5
CC(C)(C)c1cc(C(=O)NCc2ccco2)n(Cc2ccc(F)cc2)n1,107.5,75.9,103.0,-5.6
c1ccc(-c2nnc(-c3ccccc3)nn2)cc1,102.7,85.9,nt,-37.0
O=C(O)CSCC(=O)Nc1ccc(Oc2ccc(OC(F)(F)F)cc2)cc1,109.6,89.6,100.3,nt
CCN1CCN(Cc2coc3ccccc3c2=O)CC1,89.8,106.9,103.4,-4.7
Cc1nc2cc(N)ccc2n1-c1ccccc1,110.9,98.0,nt,15.1
Cc1ccc(-c2nc(C(F)(F)F)cc(=O)[nH]2)cc1,100.9,96.9,101.1,-0.4
COc1cc(CNCCSc2nnnn2C)ccc1OCc1ccccc1,85.4,92.7,103.3,7.7
C/C(=N\NC(=O)CCc1ccc(S(=O)(=O)N2CCOCC2)cc1)c1ccc2c(c1)OCCO2,82.7,94.1,nt,-13.3
COc1cc2c(cc1OC)CN(C(=O)CCNC(=O)c1ccccc1Cl)CC2,81.0,88.1,nt,-25.2
O=C(CCn1nc(C(=O)N2CCc3ccccc32)ccc1=O)N1CCc2ccccc21,nt,nt,105.5,-26.1
O=C1Cc2cc(S(=O)(=O)NC3CCCCC3)ccc2N1,95.4,78.1,108.6,-20.7
COc1ccc(-c2c(C)nn3c(C(F)(F)F)cc(-c4ccccc4)nc23)cc1,93.0,86.3,100.7,4.7
COC(=O)c1cc(=O)n(C)[nH]1,103.7,99.2,106.0,-4.4
O=C(c1ccc(CN2C(=O)CCn3nc(-c4ccc(Cl)cc4)cc32)cc1)N1CCCC1,nt,nt,98.6,5.7
c1cnc2c(CN3CCOCC3)cccc2c1,91.5,92.1,nt,-11.6
CCCNS(=O)(=O)c1ccc2c(c1)oc(=O)n2CC(=O)OCC,109.0,95.9,156.0,nt
COc1ccc2c(c1)c(CC(=O)NCc1ccco1)c(C)n2C(=O)c1ccc(Cl)cc1,120.0,93.7,108.5,4.6

Bioassay records: PubChem, ICCB-Longwood Screening Facility, Harvard Medical School
